RecA splice inh: Mtb RecA intein splicing inhibition; P9WHJ3; cell-free RecA intein splicing, fluorescence; inhibition, %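 (about 9 µM by stock and volumes)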; actives 0.75% (n = 290,000); in the data active means inhibition above about 30%; inconclusive means no clear call, values can overlap the other calls;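 further: 0% = vehicle wells and 100% = reference inhibitor control wells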
Target sequence (P9WHJ3 whole entry, looked up, canonical isoform): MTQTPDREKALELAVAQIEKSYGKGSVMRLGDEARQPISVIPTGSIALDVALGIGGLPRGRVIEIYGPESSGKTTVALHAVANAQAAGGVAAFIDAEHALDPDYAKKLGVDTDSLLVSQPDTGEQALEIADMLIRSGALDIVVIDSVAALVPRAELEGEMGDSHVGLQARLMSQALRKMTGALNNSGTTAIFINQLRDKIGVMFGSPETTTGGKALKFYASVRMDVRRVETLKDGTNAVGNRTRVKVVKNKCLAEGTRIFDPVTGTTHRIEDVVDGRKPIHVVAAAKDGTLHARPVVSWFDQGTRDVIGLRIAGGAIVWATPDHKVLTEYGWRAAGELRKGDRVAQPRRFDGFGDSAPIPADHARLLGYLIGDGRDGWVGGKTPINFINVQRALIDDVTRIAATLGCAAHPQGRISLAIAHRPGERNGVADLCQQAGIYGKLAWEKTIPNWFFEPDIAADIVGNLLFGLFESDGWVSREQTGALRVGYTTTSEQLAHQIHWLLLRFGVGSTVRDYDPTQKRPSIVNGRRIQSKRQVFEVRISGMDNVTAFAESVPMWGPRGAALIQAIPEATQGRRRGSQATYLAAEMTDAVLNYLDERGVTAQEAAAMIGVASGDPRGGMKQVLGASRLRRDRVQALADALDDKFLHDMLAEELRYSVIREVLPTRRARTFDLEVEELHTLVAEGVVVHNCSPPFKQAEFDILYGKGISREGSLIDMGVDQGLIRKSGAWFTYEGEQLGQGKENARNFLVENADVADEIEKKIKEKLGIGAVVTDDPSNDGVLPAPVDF
YopH inh: blocks Yersinia enterocolitica YopH tyrosine phosphatase | fluorescence Ex485/Em525 | inhibition, %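 (about 10 µM by stock and volumes)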 | actives 0.16% (n = 140,000);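 active means inhibition of 50% or more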;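 further: controls were vehicle for no effect and minimum signal wells for full effect; inactives centre near -20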
Mtb bLac sens: beta-lactam sensitization of Mtb H37Rv | AID 434955 | actives 0.27% (n = 330,000) | inhibition, % at 25 µM | M. tuberculosis H37Rv growth with meropenem, percent inhibition; hits of this screen are not shown here;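 active means about 74% or more and at least 40 points above the plate without the antibiotic, then above 30% in a dose series; inconclusive means first-round hits that could not be retested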;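 further: growth measured after seven days incubation then overnight dye step; 0% = bacteria only wells and 100% = bacteria with antibiotic; twin plates without the antibiotic show which effects depend on it; some results filed as inactive read as strong as hits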
Arbovirus inh: antivirals against arbovirus infection; arbovirus infection cell-based antiviral screen; inhibition, % at 10 µM; actives 0.37% (n = 200,000); AID 1251;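 active means inhibition from about 30%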;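 further: bluetongue infection of BSR cells; cell survival read as ATP light after 72 h; 0% = infected wells without compound and 100% = uninfected wells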
Mtb growth: M. tuberculosis H37Rv growth inhibitors, H37Rv strain (AID 1626). inhibition, % at 10 µM; hits with a dose series show IC50 in µM. M. tuberculosis H37Rv growth inhibition; higher % means a stronger effect. actives 0.95% (n = 220,000);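 active means confirmed in a dose series; inconclusive means inhibition above 80% but not taken into the dose series; inactive means below 80% or under 30% at every dose of the series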;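 further: bacteria incubated seven days before Alamar blue readout; 0% = bacteria only wells and 100% = bacteria with antibiotic wells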
Arbovirus inh repeat: also measured in Arbovirus inh; calls as there; inhibition, %; measured here: 10K subset replicate screen; many hits read low in the repeat;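 first of two repeat runs on a subset; 0% = infected and 100% = uninfected wells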
Starred values were filed as active, the others as inactive; ? = inconclusive; . = no result given. An excerpt (hit frequency here may not be typical).

SMILES	RecA splice inh	YopH inh	Mtb bLac sens	Arbovirus inh	Mtb growth	others
CCc1ccc2[nH]c(C(=O)Nc3ccc(F)cc3Br)cc2c1	3.7	.	-4.0	.	.
OCC1OC(Oc2cccc3ccccc23)C(O)C(O)C1O (stereo unspecified)	0.3	.	-2.5	.	.
CCOC(=O)Cn1nc(C)n(-c2ccc(F)cc2)c1=O	-1.8	.	4.1	5.2	0.2%
CSCCC(NC(=O)c1cccc(C)c1)C(=O)Nc1sccc1C(N)=O (stereo unspecified)	-2.6	.	-15.1	.	.
CCN(CC)c1ccc(NC(=O)c2ccc(Cl)nc2)cc1	-11.5	-16.6	13.5	-13.1	2.7%
Cc1cc2nc(C3CCN(CC4COc5ccccc5O4)CC3)[nH]c2cc1C (stereo unspecified)	0.4	-13.0	99.7	-20.9	12.7%
CCOC(=O)C(C)Oc1cccc2c(=O)n(CC(=O)Nc3ccc4c(c3)OCCO4)ccc12 (stereo unspecified)	0.5	-51.5	10.2	-11.7	0.6%
CCOC(=O)CC1(c2ccccc2)CCOC(C)(C)C1 (stereo unspecified)	-0.9	6.6	2.7	3.1	-13.5%
O=C(CSCc1ccccc1Cl)N1CCN(c2ccccn2)CC1	1.1	-12.9	-6.9	4.4	-1.0%
COCCNC(=O)c1cc(S(=O)(=O)N2CCOCC2)ccc1SCc1cccc(OC)c1OC	1.5	.	3.7	1.3	6.6%
CCN1CCC2(CC1)N=C(c1ccc(F)cc1)C(=S)N2	-1.8	.	2.2	-7.5	-4.2%
COc1ccc(CNC(=O)CN(c2ccc(C)cc2)S(=O)(=O)c2c(C)nn(C)c2C)cc1	-5.7	.	0.6	.	.
CCc1ccc(C(C)NC(=S)NCc2ccc(F)cc2)cc1 (stereo unspecified)	-1.6	.	-19.8	.	.
Cc1c(C(=O)N2CCc3ccccc32)oc2ccccc12	9.5	-24.4	-4.0	-4.3	8.7%
COc1ccc(C(CNC(=O)c2ccc(Br)o2)N2CCN(C)CC2)cc1 (stereo unspecified)	-0.6	.	-11.0	.	.
CCC(C)N1C(=O)/C(=C\c2cc3c4c(c2)CCCN4CCC3)C(=O)NC1=S (stereo unspecified)	-2.1	11.9	8.8	1.7	9.0%
CCn1cc(CN2CCN(CC(C)(C)C)C(CCO)C2)c2ccccc21 (stereo unspecified)	1.0	.	1.6	.	.
O=C(CCCCl)OCc1cn(-c2ccc(Cl)cc2)nn1	1.8	.	-2.4	12.8	5.2%
O=C(N/N=C1/CCc2ccccc21)C1CC1	1.6	.	-0.5	1.6	3.0%
CCOC(=O)N1CCN(C(=O)c2ccccc2-c2ccccc2)CC1	-0.2	-15.3	-2.3	-22.7	3.6%

Overlap with the part before: 2 compounds; new compounds follow.
SMILES	RecA splice inh	YopH inh	Mtb bLac sens	Arbovirus inh	Mtb growth	others
O=C(N/N=C1/CCc2ccccc21)C1CC1	1.6	.	-0.5	1.6	3.0%
CCOC(=O)N1CCN(C(=O)c2ccccc2-c2ccccc2)CC1	-0.2	-15.3	-2.3	-22.7	3.6%
Cc1cc(-c2ccc3c(c2)COc2c4ccccc4nn2-3)on1	2.2	.	-5.8	.	-4.2%
CCCCC(C)n1[nH]c(=O)c2c(C)cc(C)nc21 (stereo unspecified)	-2.8	.	1.6	.	?
Cc1ccc(-c2nc3ccsc3c(=O)o2)cc1	.	-37.3	98.7	0.1	41.8%
CC(C)n1c(N2CCN(C(=O)NCc3ccccc3)CC2)nc2ccccc21	-0.6	-48.6	-1.7	-6.3	-1.9%
O=C(NCc1cccnc1)C1CCCN1S(=O)(=O)c1ccc(Cl)cc1 (stereo unspecified)	-0.8	.	-33.0	.	.
Cc1ccc(NC(=O)c2cc(-c3ccc4c(c3)OCO4)on2)cc1C	0.4	.	3.7	.	.
Cn1c(N)c(C(=O)COC(=O)c2cc(C3CC3)nc3ccccc23)c(=O)n(C)c1=O	-1.6	-18.8	-3.3	-4.3	2.8%
COc1ccc(OC(C)C(=O)Nc2cccc(OC)c2)cc1 (stereo unspecified)	-0.7	-7.3	-1.4	6.7	2.8%	Arbovirus inh repeat=-1.0
COc1cc2c(cc1OC)/C(=C/C(=O)c1ccccc1F)NCC2	3.0	.	6.3	.	.
Cc1ccc2nsnc2c1S(=O)(=O)NCc1ccc2c(c1)OCO2	3.3	-8.7	10.6	-0.9	-4.9%
COC(=O)c1cc(NC(=O)c2ccc(C)cc2)c(=O)oc1C	-7.1	.	0.2	9.2	0.5%
Cc1ccnc(SCc2cn3c(C)cc(C)nc3n2)n1	-2.2	.	-5.2	3.5	-0.9%
O=C(Nc1ccccc1N1CCCC1)c1ccc(Cl)c(S(=O)(=O)N2CCOCC2)c1	-0.9	.	2.1	.	.
Cc1cccc(S(=O)(=O)NCCC(=O)OCC(=O)Nc2ccc(C#N)cc2)c1	2.4	-27.1	1.1	1.6	-3.8%
COCCCNC(=O)C1CC(=O)N(CCc2ccccc2)C1 (stereo unspecified)	-0.2	-23.1	-1.7	8.0	-0.6%
CCOC(=O)CSc1nnc(-c2ccccc2OC)o1	-2.3	-3.8	96.6	-1.0	10.6%
CCOC(=O)c1cnc2ccc(OC)cc2c1NCCN1CCOCC1	-0.9	.	5.0	.	.
O=C(NCc1ccccc1Cl)C1CCCN(c2nc3ccsc3c(=O)s2)C1 (stereo unspecified)	-2.3	.	1.0	5.8	1.2%
CC(=NC1CCCC1)c1c(C)[nH]n(-c2nc3ccccc3s2)c1=O	-0.4	9.8	?	-1.8	-1.2%
CCN(CC)S(=O)(=O)c1ccc(C)c(NC(=O)CN2CCN(Cc3ccccc3)CC2)c1	-1.4	.	-4.3	.	15.4%

Looked up by structure from the list above:
SMILES	RecA splice inh	YopH inh	Mtb bLac sens	Arbovirus inh	Mtb growth	others
O=C(N/N=C1/CCc2ccccc21)C1CC1	1.6	.	-0.5	1.6	3.0%
CCN(CC)c1ccc(NC(=O)c2ccc(Cl)nc2)cc1	-11.5	-16.6	13.5	-13.1	2.7%
CCOC(=O)c1cnc2ccc(OC)cc2c1NCCN1CCOCC1	-0.9	.	5.0	.	.

(listing goes on)
SMILES	RecA splice inh	YopH inh	Mtb bLac sens	Arbovirus inh	Mtb growth	others
Cc1nc2[nH]onc2c2nccc(=O)c12	-31.1	-36.5	-8.8	1.2	-7.4%
O=C(CSC(=S)N1CCCCC1)Nc1ncc2c(n1)CC(c1ccco1)CC2=O (stereo unspecified)	2.0	.	-2.7	.	-6.3%
O=C(CCc1c[nH]c2ccccc12)N=Nc1c(O)[nH]c2ccccc12	2.3	.	1.8	-0.7	1.4%
Cc1ccc2c(c1)N(CC(=O)N1CCCCCC1)C(=O)c1cccnc1O2	4.1	.	?	.	.
CC(C)C[C@H](NC(=O)c1nc[nH]c1C(=O)N1CCc2ccccc2C1)C(=O)OCc1ccccc1	8.0	.	79.3	.	-0.6%
Cc1ccccc1S(=O)(=O)/N=C(/Nc1c(C)n(C)n(-c2ccccc2)c1=O)c1ccccc1	-0.6	.	-0.7	18.1	-2.8%
O=C(CCCSc1ccccc1)Nc1nc(-c2ccco2)c(-c2ccco2)s1	12.9	-4.9	-1.2	4.8	-2.2%
C[C@H](NC(=O)[C@@H]1CSC2c3ccccc3C(=O)N21)C(=O)NC1CCCC1 (stereo partly specified)	1.8	.	-5.0	.	.
CCOC(=O)c1cc(NC(=O)C2C3C=CC(O3)C2C(=O)O)cc(C(=O)OCC)c1 (stereo unspecified)	-2.0	.	2.1	.	.
O=C(N=C1c2ccccc2CN1c1ccc(F)cc1)c1ccc(Cl)nc1	9.5	-6.6	6.6	-5.4	-6.9%
CC1CN(C(=O)CCNS(=O)(=O)c2ccc(Br)cc2)CC(C)O1 (stereo unspecified)	1.2	.	-0.2	.	.
[S-]C(=Nc1ccc(Cl)cc1)N[n+]1ccccc1	4.3	-44.0	-3.7	4.0	6.7%
CC(C)Oc1cccc(C(=O)C2CCCN(C(=O)CCc3cnn(C)c3)C2)c1 (stereo unspecified)	-1.1	.	?	.	.
O=C(O)c1cn(-c2ccccc2)nc1-c1ccncc1	-0.1	-27.9	-5.4	3.1	-15.2%
C(=N\NC1=Nc2cccc3cccc1c23)/c1ccccc1	-3.6	-23.4	?	-5.5	17.8%
OCCN(Cc1ccccc1)Cc1ccccc1F	-2.1	-28.4	32.2	5.7	-3.7%
Cc1nc2ccc(F)cc2cc1C(=O)NC(C)C	3.5	-12.2	-8.6	6.5	-3.4%
COC(=O)CCCC1=CC2=CC(=O)C(C)(OC(=O)c3ccco3)C(=O)C2=CO1 (stereo unspecified)	-4.8	.	-1.3	.	-7.7%
O=[N+]([O-])c1ccc(Cl)c(/C=N/n2c(-c3ccncc3)n[nH]c2=S)c1	4.6	.	-4.9	.	4.0%
COc1ccc(Oc2nc3c(C)cccn3c(=O)c2/C=C(\C#N)C(N)=O)cc1	-2.4	.	21.9	.	2.3%

Three compounds out of the list, sorted by SMILES length, high to low:
SMILES	RecA splice inh	YopH inh	Mtb bLac sens	Arbovirus inh	Mtb growth	others
CC(C)C[C@H](NC(=O)c1nc[nH]c1C(=O)N1CCc2ccccc2C1)C(=O)OCc1ccccc1	8.0	.	79.3	.	-0.6%
C[C@H](NC(=O)[C@@H]1CSC2c3ccccc3C(=O)N21)C(=O)NC1CCCC1 (stereo partly specified)	1.8	.	-5.0	.	.
[S-]C(=Nc1ccc(Cl)cc1)N[n+]1ccccc1	4.3	-44.0	-3.7	4.0	6.7%

Next results.
SMILES	RecA splice inh	YopH inh	Mtb bLac sens	Arbovirus inh	Mtb growth	others
COc1cccc(C(=O)Nc2ccc(N3CCN(C(=O)c4cccs4)CC3)cc2)c1	-2.5	.	2.7	.	.
Cc1cc(OCC(=O)N2CCCC2)ccc1Cl	3.1	-38.6	2.8	-4.2	-5.4%
O=C(CSc1nnnn1-c1ccc2c(c1)OCCO2)OC1CCCCC1	.	-29.3	97.6	-4.4	66.7%
CC1CCN(S(=O)(=O)c2ccccc2)CC1	1.2	.	-6.5	.	.
Cn1c(NC(=O)c2ccc(F)cc2)c(-c2cccs2)c(=O)c2ccccc21	-1.4	.	-1.3	.	-2.3%
NC(=O)c1c(NC(=O)c2ccncc2)sc2c1CCCCCC2	-8.1	.	5.3	.	.
O=C(O)[C@@H]1[C@@H]2C[C@@H]2CN1c1ncccc1[N+](=O)[O-]	-2.2	.	1.4	0.4	-0.2%
CC(=O)Nc1ccc(NC(=O)c2c(C)noc2C)cc1	-0.9	.	-16.7	.	.
O=c1[nH]c2ccccc2c(O)c1-c1ccccc1[N+](=O)[O-]	-1.1	.	77.2	1.8	-0.9%
O=C(c1ccc(-n2cccn2)cc1)N1CCN(c2ncccc2C(F)(F)F)CC1	0.4	.	43.5	.	.
COC(=O)CCCC(=O)N1CCCC(C(=O)c2ccccc2SC)C1 (stereo unspecified)	0.1	.	0.4	.	.
OCC1(CCc2ccccc2)CCN(Cc2ccc(OC(F)F)cc2)CC1	-1.4	.	.	-1.6	-13.8%
N#Cc1c(-c2ccccc2)cc(C2CC2)nc1SCC(=O)c1cccs1	2.6	-26.8	.	0.5	.
COc1ccc(OC)c(N(/C(N)=N/c2nc(C)cc(C)n2)S(=O)(=O)c2ccc(NC(C)=O)cc2)c1	1.8	.	5.4	.	.
CC(SCc1ccccc1)C(=O)NCc1ccccn1 (stereo unspecified)	-2.2	.	.	-1.4	-2.6%
Cc1cc(C(=O)C[N+]23CCN(CC2)CC3)c(C)n1-c1ccc(Br)cc1	5.4	.	-3.4	0.0	0.8%
CCCc1nc(SCC(=O)Nc2ccccc2OC)c2c(=O)n(C)c(=O)n(C)c2n1	-0.7	-21.4	-0.5	2.2	4.8%
Cc1c(C(=O)Nc2c(F)cc(F)cc2Br)sc2ncn(CC(=O)N3CCCC3)c(=O)c12	1.6	.	-1.0	.	.
COc1cccc(C=NCC(C)N=Cc2cccc(OC)c2O)c1O (stereo unspecified)	0.2	-10.8	-2.4	-19.9	-7.3%
C=C1C(=O)[C@@]23[C@H](O)C[C@@H]4C(C)(C)CC[C@H](O)[C@]4(C)[C@@H]2C[C@H](O)[C@@H]1[C@H]3O	-0.4	-17.0	66.8	-24.2	-0.6%
CC(NC=C1C(=O)OC(C)(C)OC1=O)C(=O)O (stereo unspecified)	0.7	.	-4.8	0.2	4.6%
CC1CCCCN1C(=O)COC(=O)c1cccc(NS(=O)(=O)c2ccccc2)c1 (stereo unspecified)	2.5	.	3.8	.	.
Nc1nc(Nc2ccccc2F)nc(NCCO)c1[N+](=O)[O-]	-1.6	.	24.1	.	-4.4%
O=C(Nc1nnc(C2CC2)s1)c1n[nH]c(=O)c2ccccc12	-1.4	.	6.7	.	-8.8%
COc1ccc([C@@H]2C[C@H]3CN(c4ccccc4)C(=O)[C@]34CCCN24)c(OC)c1OC	3.1	.	-5.2	8.3	1.6%
COc1cccc(-c2cc(C(=O)O)no2)c1	-0.2	-20.8	-1.1	1.5	2.1%
